NPYLR7 ag: agonists of mosquito NPYLR7 receptor, primary screen, cell-based, Aedes aegypti, calcium fluorescence, mosquito biting behavior. Aedes aegypti neuropeptide Y-like receptor 7 (NPYLR7). HEK293T NPYLR7/Galpha15, GCaMP6s calcium fluorescence. activation, % at 10 µM. hit rate 0.15% among 270,000. AID 1259423, 2018; in the data active = activation above about 40%;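 also: 0% = vehicle and 100% = reference agonist at the receptor; some compounds past the cut are filed as inactive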
NPYLR7 ag max-min: second read-out of NPYLR7 ag, no call of its own (marks repeat the call); activation, %; measured here: Max-Min RFU normalised activation; some inactives read as strong as hits;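 span of the calcium signal over five minutes; 0% = vehicle and 100% = native peptide agonist; compound fluorescence can raise it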
* hit, by the source's call; & = joins results of further samples. A portion of the library. The share of hits here may be higher or lower than overall.

no. | compound | NPYLR7 ag | NPYLR7 ag max-min
1 | CCOC(=O)N1CCN(C(=O)c2csc(CSc3nnc(-c4cccs4)n3-c3cccc(C)c3)n2)CC1 | -10 | -7
2 | Cc1ccn(C(=O)c2ccc(Br)cc2)n1 | -3 | 3
3 | Cc1ccc2cc(CCNC(=O)CC3CCCCC3)c(=O)[nH]c2c1C | 6 | 6
4 | O=c1cc(-c2ccc3ccccc3c2)[nH][nH]1 | 1 | 1
5 | Cc1nn(-c2ccccc2)c(C)c1[P+](N)(N1CCOCC1)N1CCOCC1 | 10 | 7
6 | C=CCNC(=O)N[C@H]1C[C@@H](C(=O)N[C@H](Cc2c[nH]c3ccccc23)C(N)=O)N(C(=O)c2cccn2C)C1 | -12 | -18
7 | COc1ccccc1-c1cc(C(=O)N2CCN(c3ccccc3F)CC2)nc2cc(-c3ccc(Cl)cc3)nn12 | 11 | 14
8 | O=C(CCCc1cccs1)OCCc1cn[nH]c1C(F)(F)F | 1 | 2
9 | COc1cc(-c2ccnc(N3CCN(C(=O)c4cccc(Cl)c4)CC3)n2)cc(OC)c1OC | -7 | -10
10 | CC(C)(CO)CNC(=O)C1CC(=O)N(C2CC2)C1 (stereo unspecified) | -4 | -12
11 | CCCCC(=O)N1CCc2ccccc2C1c1ccc(F)cc1 (stereo unspecified) | 11 | 6
12 | O=C(NC(C(=O)NCCN1CCOCC1)C12CC3CC(CC(C3)C1)C2)C1CCCCC1 (stereo unspecified) | 4 | 5
13 | CN(CC1COc2ccccc2O1)C(=O)CCn1cnc2sccc2c1=O (stereo unspecified) | 3 | -1
14 | Clc1ccc(CCCc2nc3ccc(Cl)cc3[nH]2)c(Cl)c1 | 2 | 2
15 | CC1(C)OC(=O)C=C[C@@]2(C)C1C[C@@H](O)[C@]1(C)C2CC[C@@]2(C)C(c3ccoc3)OC(=O)[C@H]3O[C@]321 (stereo partly specified) | 7 | 6
16 | CC(NC(=O)c1cncn1-c1cccc(-c2ccccc2C(F)(F)F)c1)c1ccc(Br)cc1 (stereo unspecified) | 16 | 23
17 | Cc1c(Br)c([N+](=O)[O-])nn1CC(=O)NCC1CCCO1 (stereo unspecified) | -8 | -19
18 | COc1ccc(OC(=O)C=Cc2ccc([N+](=O)[O-])cc2)cc1 | -1 | -6
19 | O=C(CCN(Cc1ccco1)c1nc(-c2ccco2)nc2ccccc12)NCCN1CCOCC1 | 9 | 17
20 | O=C(O)CC1(CC(=O)Nc2cc(C(F)(F)F)cc(C(F)(F)F)c2)CCCCC1 | -2 | -5
21 | O=C1NC(c2cc3cc(F)ccc3o2)Nc2ncccc21 (stereo unspecified) | 0 | -2
22 | Cc1cnc(SCCN2CCOCC2)nc1C1CCCN(C(=O)c2cc(=O)c3ccccc3o2)C1 (stereo unspecified) | 5 | 7
23 | COc1ccc(-n2nc3c(c2NC(=O)/C=C\c2ccc(OC)c(OC)c2)CS(=O)(=O)C3)cc1 | -3 | -3
24 | COC(=O)CSc1nnc(-c2ccccc2)c2sc(C)nc12 | 1 | -2
25 | O=C(CCCn1cnnn1)N1CCc2onc(-c3cccc(F)c3)c2C1 | 16 | 11

From entry 1 as far as 2, as listed above:
no. | compound | NPYLR7 ag | NPYLR7 ag max-min
1 | CCOC(=O)N1CCN(C(=O)c2csc(CSc3nnc(-c4cccs4)n3-c3cccc(C)c3)n2)CC1 | -10 | -7
2 | Cc1ccn(C(=O)c2ccc(Br)cc2)n1 | -3 | 3

Continuation:
no. | compound | NPYLR7 ag | NPYLR7 ag max-min
26 | c1cc2c(cc1CN1CCN(c3nc4nonc4nc3N3CCSCC3)CC1)OCO2 | 6&10 | 2&14
27 | Cc1cc(=O)n2nc(N3CCCC3C(=O)N3CCN(C)CC3)sc2n1 (stereo unspecified) | -5 | -3
28 | CC(=O)Nc1ccc(CNCCSCc2ccccc2F)cc1 | -1 | -2
29 | CN(Cc1nc2ccccc2o1)c1nc2nonc2nc1N1CCSCC1 | -4 | -6
30 | COc1ccc(Cc2c(O)nc(SCC(=O)N3CCOCC3)[nH]c2=O)cc1 | -12 | -20
31 | CN(Cc1ccccc1)C(=O)Nc1cccc(OC(F)F)c1 | 0 | -1
32 | Cc1noc(-c2ccc(C(C)(C)C)cc2)c1C(=O)NCc1ccccn1 | -13 | -12
33 | COc1ccc2oc(=O)c(-c3nc(-c4ccccc4)c4cc(Br)ccc4n3)cc2c1 | 4 | 7
34 | CN(CC(=O)Nc1c(Cl)cccc1Cl)C(=O)CCC(=O)c1ccc(F)cc1 | -5 | -7
35 | COc1ccc(C(C)=O)cc1Cn1c(C)c(C(=O)NCC2CC2)sc1=O | -6 | -7
36 | Cc1cc2cc(C(=O)NCCCCc3ccccn3)ccc2o1 | 2 | 2
37 | Cc1ccc(F)c(OCC2CN(CC(C)O)CCO2)c1 (stereo unspecified) | 12 | 5
38 | CC(=O)N1CCN(C(=O)c2cc(-c3ccccc3F)nc3cc(-c4ccc(Cl)cc4)nn23)CC1 | 2&-11 | 12&-2
39 | Cc1ccc(S(=O)(=O)NCC(c2cccc3ccccc23)N2CCOCC2)cc1C (stereo unspecified) | -4 | 1
40 | CCOc1ccc(NC(=O)CCc2csc(NC(=O)c3ccc[nH]c3=O)n2)cc1 | -8 | -14
41 | CCc1nn(-c2ccccc2)c(Oc2cccc(OC)c2)c1CN(CC(O)Cc1ccccc1)C1CC1 (stereo unspecified) | 6 | 6
42 | CCn1c(C2CCN(Cc3ccc(C#CC(C)(C)O)cc3)CC2)n[nH]c1=O | 7 | 2
43 | Cc1nnc(SC(C)C(=O)Nc2ccc(F)cc2)n1C1CCCCC1 (stereo unspecified) | 12 | 8
44 | CC1CN(c2ncnc(N)c2[N+](=O)[O-])CC(C)O1 (stereo unspecified) | 1 | 4
45 | O=C1NC(=NN2CCOCC2)N=NC1Cc1ccc(F)cc1 (stereo unspecified) | -1 | -1
46 | Fc1cccc(Nc2cc3c(cn2)ncn3CC2CC2)c1 | -2 | -1
47 | O=c1[nH]c2cc(-c3nc(C4CCOC4)no3)ccc2n1C1CCCC1 (stereo unspecified) | 3&3 | -1&1
48 | COc1ccc(CNC(=O)c2cccnc2N2CCN(C(=O)[C@H](C)OC(C)=O)CC2)cc1 | -4 | 8
49 | Cc1ccccc1-c1nc(CN2CCOC3(CNCCOC3)C2)c(C)o1 (stereo unspecified) | 19 | 10
50 | Cc1onc(-c2ccccc2)c1C(=O)N1CCCN(CC2CC2)C(C(C)C)C1 (stereo unspecified) | 10 | 7
51 | CCCN(Cc1c(CC)nn(-c2ccc(F)cc2)c1N1CCN(C(C)C)CC1)C(=O)Nc1ccc(C(F)(F)F)cc1 | 5 | 10
52 | CNS(=O)(=O)CC(=O)N1CCCCCC1c1cccc(C)c1 (stereo unspecified) | -22 | -23
53 | Cc1ccsc1CN(Cc1ccc(F)cc1)C(=O)CN(CCN1CCOCC1)C(=O)c1cccc(F)c1 | 10 | 7
54 | CN(CCCCc1ccccc1)C(=O)c1ccc(NS(C)(=O)=O)cc1 | 4 | 2
55 | CCCCN1C(=O)C2(NNc3ccccc3O2)c2ccccc21 (stereo unspecified) | -17 | -19
56 | COCCn1c(=O)c2c(nc3n2CC(C)CN3c2ccc(C)cc2)n(C)c1=O (stereo unspecified) | 26 | 16
57 | COc1ccc(C(O)c2c(CN3CCCCC3)c3ccccc3n2C)cc1 (stereo unspecified) | -1 | -1
58 | Cc1ccc(CN(CC(O)COCc2ccccc2)CC2CC2)o1 (stereo unspecified) | 13 | 24
59 | COC(=O)C1C(C)=NC2=C(C(=O)CC(C)(C)C2)C1c1ccc(C)s1 (stereo unspecified) | 3 | -1
60 | COc1ccccc1C(=O)Nc1cc(C)nn1-c1nc(C)cc(=O)[nH]1 | 11 | 4
61 | Cc1ccc(-n2cnc(C(=O)N(C)Cc3cccc4ccccc34)n2)cc1 | -3 | -7
62 | COc1ccc2sc(N(Cc3cccnc3)C(=O)C3=COCCO3)nc2c1 | -17 | -14
63 | COc1cc(F)ccc1-c1c(-c2ccccc2)ncn1[C@H]1CCCCNC1=O | 5 | 4
64 | CC(C)(C)c1cc2nc(C(=O)N3CCC(n4c(=O)[nH]c5ccccc54)CC3)cc(-c3ccccc3F)n2n1 | 8 | 24
65 | Fc1ccc(N=Cc2ccc3ncccc3c2)cc1F | 1 | 0
66 | CCc1ccc(NC(=O)CSc2nc(=O)n(Cc3ccncc3)c3c2CCC3)cc1 | 0 | -1
67 | COc1cc(CN2CCC(C(=O)N(C)C(c3ccc(F)cc3)c3ccccn3)CC2)cc(OC)c1 (stereo unspecified) | 8 | -6
68 | C=C1CC(=O)C2=C(C)CC[C@@H]3[C@H](OC(=O)[C@H]3C)[C@@H]12 | 10 | 0
69 | COc1cc(-c2ccnc(N3CCN(S(=O)(=O)c4ccc(F)c(Cl)c4)CC3)n2)cc(OC)c1OC | 9 | 2
70 | CCC(CC)c1nc(C(N)=O)c2[nH]c(=O)n(-c3cccc(OC)c3)c2n1 | 12 | 3
71 | Cc1cc2ccccc2n1CCNC(=O)C(C)C | 1 | -5
72 | CCOC(=O)c1cc(C(=O)OCC)c2cccc(C)n2c1=O | -5 | -9
73 | CCN(C)C(C(=O)Nc1ccn(Cc2ccncc2)n1)c1ccccc1 (stereo unspecified) | 2 | 0
74 | Cn1nnc2c(=O)n(Cc3cccnc3)cnc21 | 1 | 2
75 | COc1ccc(CCN(Cc2ccc(C)s2)C(=O)CN(CC2CCCO2)C(=O)Nc2ccc(C)c(C)c2)cc1OC (stereo unspecified) | 12 | 22

New compounds follow:
no. | compound | NPYLR7 ag | NPYLR7 ag max-min
76 | CCN1C(=O)c2ccccc2N2C(=O)CCC12C(=O)Nc1cccc(OC)c1 (stereo unspecified) | 0 | 15
77 | Cc1ccc(NC(=O)N2CCN(C(C(=O)N3CCOCC3)C3CCCC3)CC2)cc1 (stereo unspecified) | -3 | -1
78 | CCC(CNC(=O)c1cc(C)sc1NC(=O)C(C)(C)C)N1CCOCC1 (stereo unspecified) | 3 | 0
79 | COc1cc(NCc2ccccc2-n2ccnc2C)ncn1 | 11 | -1
80 | CC(C)(C)OC(=O)N1C(C(=O)NCCCn2cccn2)CSC1c1cccc(Br)c1 (stereo unspecified) | -8 | -15
81 | COc1ccc(COCC(O)CN2CCN(S(=O)(=O)c3ccc(C(C)C)cc3)CC2)cc1OC (stereo unspecified) | 0 | 1
82 | Nc1nnc(SCc2ccc(Br)cc2F)s1 | 9 | 14
83 | COc1ncccc1C(=O)NC1CC(=O)N(CCCc2ccccc2)C1 (stereo unspecified) | 18 | 5
84 | O=C(CCOc1ccc(Br)cc1)NC1CCCCC1 | 8 | 7
85 | c1ccc2[nH]c(N3CCN(Cc4cc5n(n4)CCNC5)CC3)nc2c1 | 6 | 6
86 | CCCCn1c(N)c(N(Cc2cc(C)on2)CC(C)C)c(=O)[nH]c1=O | 16 | 15
87 | CCC1=NC(c2ccc(Br)cc2)N(O)C1(C)C (stereo unspecified) | -7 | -16
88 | N#Cc1ccc(CSc2nc(=S)c3ccccc3[nH]2)cc1 | -6 | 964
89 | CCN1C(=O)C(F)(CC)C(=O)c2ccccc21 (stereo unspecified) | 6 | 10
90 | COCCN1C(=O)COCc2cc(-c3ccncc3)ccc21 | 2 | -1
91 | CC(C)N1CCn2nc(C(=O)N(C)CCc3nc4ccc(F)cc4[nH]3)cc2C1 | 19 | 11
92 | O=C(NCC1=COCCO1)C1CC1c1ccccc1Cl (stereo unspecified) | -1 | -2
93 | CC(C)(C)c1nn2cnnc2n(/N=C\c2ccc(OCc3ccccc3)cc2)c1=O | -3 | -5
94 | Cc1ccc(C=C2SC(=S)N(CCCC(=O)O)C2=O)o1 | -1 | -3
95 | CCCn1c(=O)c2ccc(Cl)cc2n(CC(=O)Nc2ccc(OC)c(OC)c2)c1=O | -1 | 8
96 | CC(=O)Nc1cccc(-c2csc(CN3CCNCC3)c2)c1 | 6 | 0
97 | Cc1ccc(Cc2nsc(N3CCC(C(=O)NCCCN4CCCCC4C)CC3)n2)cc1 (stereo unspecified) | 4 | 3
98 | COc1ccc(C(=O)NC(=NCCCc2ccccc2)OCC(C)C)cc1 | 2 | 4
99 | CC(C)NC(=O)C1CCN(C2CCN(Cc3cn[nH]c3C3CCCCC3)CC2)CC1 | 11 | 3
100 | CN(C)CCn1c2c(c(SCC(=O)Nc3ccccc3[N+](=O)[O-])nc1=O)CCCC2 | -3 | -1

Given with each value named: entries from further up.
90	COCCN1C(=O)COCc2cc(-c3ccncc3)ccc21
  NPYLR7 ag: 2; NPYLR7 ag max-min: -1
91	CC(C)N1CCn2nc(C(=O)N(C)CCc3nc4ccc(F)cc4[nH]3)cc2C1
  NPYLR7 ag: 19; NPYLR7 ag max-min: 11
92	O=C(NCC1=COCCO1)C1CC1c1ccccc1Cl (stereo unspecified)
  NPYLR7 ag: -1; NPYLR7 ag max-min: -2

New compounds follow.
no. | compound | NPYLR7 ag | NPYLR7 ag max-min
101 | CCN(CC)c1onc(-c2ccccc2)c1CN(Cc1ccco1)C(=O)c1ccc(OC)cc1 | 6 | 9
102 | COc1ccc(C(C2Sc3nc(C)nn3C2=O)N2CCOCC2)cc1 (stereo unspecified) | 5 | 2
103 | COc1ccc(C)cc1N1CC(C(=O)NCc2ccc(C(N)=O)o2)CC1=O (stereo unspecified) | 1 | 0
104 | Cc1csc(N(C)S(=O)(=O)c2cnc(Cl)c(C)c2)n1 | 3 | 15
105 | O=C(O)CC1Sc2nnc(Cc3ccc(F)cc3)n2N=C1c1cccs1 (stereo unspecified) | 2 | 18
106 | CCN(CC)c1ccc(C2NC(=O)NC(C)=C2C(=O)OCc2ccccc2)cc1 (stereo unspecified) | 3 | 4
107 | CCC(C)NC(=O)CCNC(=O)N1CCC(C)(C)C1 (stereo unspecified) | 4 | 1
108 | Cc1ccc(Cl)cc1-n1c(SCc2ccc(F)cc2)nnc1C(C)NC(=O)c1ccccc1Br (stereo unspecified) | 3 | 12

Screen by screen, from the results shown:
Compounds 102–106 in NPYLR7 ag, in turn: 5, 1, 3, 2, 3
Compounds 102–106 in NPYLR7 ag max-min, in turn: 2, 0, 15, 18, 4

Compound activity from PubChem.
